# Screening results: PubChem BioAssay, Johns Hopkins Ion Channel Center
# KCNQ2 block – KCNQ2 channel blockers in CHO-K1 cells – cell-based, FluxOR thallium flux, B-score, primary screen (AID 2156); 20 min; active compounds read low; only compounds with negative scores are shown here; some inactives read as strong as hits; B-score at 10 µM; actives 1.1% (n = 310,000);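 active = fluorescence ratio B-score at most minus 3 library SDs, with starting brightness B-score within 2 library SDs, cut at about -5.5 in these data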
# Target sequence (O88943 whole entry, looked up): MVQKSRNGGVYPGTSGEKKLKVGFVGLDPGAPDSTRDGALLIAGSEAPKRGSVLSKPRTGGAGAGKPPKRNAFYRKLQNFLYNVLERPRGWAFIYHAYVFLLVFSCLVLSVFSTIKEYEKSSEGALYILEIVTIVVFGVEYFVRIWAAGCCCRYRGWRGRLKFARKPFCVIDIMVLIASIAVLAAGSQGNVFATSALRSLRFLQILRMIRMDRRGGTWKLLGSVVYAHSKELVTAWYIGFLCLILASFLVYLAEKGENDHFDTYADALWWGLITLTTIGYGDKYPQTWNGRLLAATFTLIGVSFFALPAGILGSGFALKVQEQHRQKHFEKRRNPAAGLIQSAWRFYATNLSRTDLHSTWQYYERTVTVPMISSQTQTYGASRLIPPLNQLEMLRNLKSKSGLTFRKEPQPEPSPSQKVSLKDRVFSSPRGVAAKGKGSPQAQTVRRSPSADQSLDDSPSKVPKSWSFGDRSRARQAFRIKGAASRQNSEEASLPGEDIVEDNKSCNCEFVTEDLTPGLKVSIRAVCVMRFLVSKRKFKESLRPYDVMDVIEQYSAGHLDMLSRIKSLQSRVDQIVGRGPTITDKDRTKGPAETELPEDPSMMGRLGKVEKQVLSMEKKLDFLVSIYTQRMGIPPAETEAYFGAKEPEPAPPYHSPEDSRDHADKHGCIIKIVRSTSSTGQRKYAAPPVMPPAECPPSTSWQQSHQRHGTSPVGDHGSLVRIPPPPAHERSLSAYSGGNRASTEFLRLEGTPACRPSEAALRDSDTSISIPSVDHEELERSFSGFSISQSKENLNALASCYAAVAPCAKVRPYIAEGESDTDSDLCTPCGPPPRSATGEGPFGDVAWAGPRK
# KCNQ2 block baseline – further read-out of KCNQ2 block, marked with its call; B-score; measured here: initial fluorescence intensity artifact check;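 brightness before thallium and not channel activity; 0 = typical well and far values either way flag optical interference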
# The depositor's hits bear a star; i = inactive. An excerpt (hit frequency here may not be typical).
KCNQ2 block | KCNQ2 block baseline | canonical_smiles
i | 1.4 | CCN1C(=O)N[C@@H](c2cccc(C(F)(F)F)c2)[C@@H](C(=O)OC)[C@H]1C
i | 0.36 | C=CCSc1nnc(Cn2c(=O)sc3ccccc32)n1C
i | -2 | Cc1cccc(NC(=O)C2(c3ccccc3)CCOCC2)c1
i | -0.06 | CCOC(=O)C1(Cc2cccc(Cl)c2)CCCN(CCO)C1 (stereo not drawn)
i | 0.69 | O=C(CCC1CCCN(C(=O)CCC(F)(F)F)C1)NCc1ccc(F)c(F)c1 (stereo not drawn)
i | -0.06 | CC1CCCN(C2(O)C(=O)Nc3ccc(Cl)cc32)C1 (stereo not drawn)
i | 3.3 | Cc1ccccc1-c1nnc(-c2ccc(Cl)cc2)o1
i | -0.22 | CS(=O)(=O)c1ccc(Cl)c(NC(=O)COC(=O)CCN=C2NS(=O)(=O)c3ccccc32)c1
i | 1.8 | CC(OC(=O)c1ccc(Cl)nc1)C(=O)NC(C)(C)C (stereo not drawn)
i | -0.1 | O=C(NCc1ccccc1)c1csc2c1CCCCC2
i | -0.02 | CCOC(=O)N1CCC(Nc2c(NCCCN(CC)c3cccc(C)c3)c(=O)c2=O)CC1
i | 2.3 | COc1ccc(-c2ccc(SCC(=O)NC3CCCC3)nn2)cc1OC
i | 0.13 | Cc1cc(C)cc(OCC(=O)N(Cc2ccccc2)C2CCS(=O)(=O)C2)c1 (stereo not drawn)
i | 0.61 | CCC(C(=O)NCCc1c[nH]c2cc(OC)ccc12)c1ccccc1 (stereo not drawn)
i | -0.96 | CCCOc1ccccc1NC(=O)c1ccc(N)cc1
i | -0.53 | CO[C@H]1O[C@@H]2O[C@@]3(C)CC[C@H]4[C@H](C)CC[C@@H]([C@H]1C)[C@@]24OO3
i | 0.07 | O=S1(=O)C=CC(c2ccccc2)C1 (stereo not drawn)
i | -0.68 | Cc1ccc(C2N3CC4([N+](=O)[O-])CN2CC([N+](=O)[O-])(C3)C4(C)C)cc1 (stereo not drawn)
i | 1.1 | O=C(NC1CCN(C(=O)Nc2ccc(F)cc2)CC1)c1ccccc1F
i | 0.01 | CCOC(=O)Nc1ccc2c(c1)N(C(=O)N1CCN(C)CC1)c1ccccc1CC2
i | -1.7 | Cc1ccc(-c2nc(NC(=O)c3nn(C)cc3[N+](=O)[O-])sc2C)cc1C
i | -0.2 | O=[N+]([O-])c1cc(Br)c2nsnc2c1N1CCOCC1
i | -0.12 | O=C1c2ccccc2NC(c2ccccn2)N1c1ccc(Cl)cc1 (stereo not drawn)
i | -2 | Cc1ccc(/C=N/NC(=O)C(NC(=O)c2ccccc2)c2n[nH]c(=O)c3ccccc23)cc1 (stereo not drawn)
i | -0.77 | COc1ccc(C(c2c(O)nc(SC)n(C)c2=O)c2c(O)nc(SC)n(C)c2=O)cc1O
i | -1.3 | O=C(O)CCc1ccc(-c2ccc(Br)cc2)n1-c1cccc(O)c1
i | -0.17 | NS(=O)(=O)c1ccc(CCNCc2cc(Br)ccc2OCc2ccccc2F)cc1
i | -1.2 | CCCCn1c(N)c(N(CC(C)C)C(=O)c2c(CC)noc2C)c(=O)[nH]c1=O
i | 0.08 | CS(=O)(=O)Nc1ccc(C(=O)N2CCN(c3ccccc3F)CC2)cc1
i | -0.55 | O=C(Nc1ccc(Br)cc1F)c1ccc2nsnc2c1

# (list continues)
KCNQ2 block | KCNQ2 block baseline | canonical_smiles
-6.8* | -1* | CCCCNC(=O)CNC(=S)N(Cc1ccccc1F)C1CCCCC1
i | 1.5 | COc1ccc(CCNC(=O)COc2coc(CN3c4ccccc4CC3C)cc2=O)cc1OC (stereo not drawn)
i | 1.9 | O=C(NCCCn1ccnc1)c1cc(C(=O)C2CCCCC2)c[nH]1
i | -0.21 | Cc1oc(/N=C/c2ccccc2)c(C#N)c1C
i | 0.11 | O=C(/C=C/c1c(F)cccc1Cl)c1ccc(F)cc1
i | -0.84 | COc1ccc(-c2cnn3cc(-c4cccc(Cl)c4)cnc23)cc1
i | 0.49 | CN1C(=O)CC(N2CCN(CC(N)=O)CC2)C1=O (stereo not drawn)
i | 0.15 | CCOc1ccc(-c2nc(N)ncc2Oc2ccccc2Br)c(O)c1
i | -0.85 | N#CCC(=O)N/N=C/c1cc([N+](=O)[O-])ccc1N1CCOCC1
i | 1.1 | CN(C)/N=C1\CCS(=O)(=O)c2sccc21
i | 1.4 | CC(OC(=O)Cc1c(F)cccc1Cl)C(=O)NCCC1=CCCCC1 (stereo not drawn)
-7.2* | 0.74* | COc1cc(CNCCc2c[nH]c3ccccc23)ccc1OCc1ccc(F)cc1
i | 1.4 | Cc1ccc(Cl)c(OCC(=O)OCC(=O)NC2CCCc3ccccc32)c1 (stereo not drawn)
i | 0.04 | CCOc1ccc(N2C(=O)c3cccnc3C2Nc2ccc(C)c(C)c2)cc1 (stereo not drawn)
i | -1.6 | CC1CCN(C(=O)/C(=C\c2ccccc2F)NC(=O)c2ccccc2)CC1
i | -0.68 | Cc1cccc(-n2c(C)cc(C(=S)N3CCOCC3)c2C)c1C
i | 0.57 | Cc1ccc(S(=O)(=O)Nc2cc(-c3nn(C)c(=O)c4ccccc34)ccc2N2CCOCC2)cc1
i | 1.8 | CCOC(=O)c1oc2ccc(/C=N/O)c(Cl)c2c1C
i | 1.3 | N/C(Cc1cccc2ccccc12)=N\O
i | -0.68 | CCn1c(SCC(=O)Nc2ccc3c(c2)OCCO3)nnc1C(C)C
i | 0.4 | CN(Cc1cccs1)C(=O)c1ccc(S(=O)(=O)NCc2ccco2)cc1
i | 0.07 | CCNC(=O)/C=C1\NC(C)(C)Cc2c1ccc1ccccc21
i | 0.08 | C=CCn1c(SCc2nc3cc(C(F)(F)F)ccc3c(=O)[nH]2)nc2sc(CC)cc2c1=O
i | 0.66 | CCOc1ccc(N2C(=O)Nc3ccccc3C2(O)C(=O)NCc2ccc(C)cc2)cc1 (stereo not drawn)
i | 1.2 | Cc1ccsc1C(=O)NCC(=O)OCc1ccccc1
i | -0.61 | N#Cc1c2n(c(=S)n(-c3ccccc3[N+](=O)[O-])c1=O)CCCCC2
i | 2.3 | COc1ccc(CNC(=O)Cn2nnc(-c3ccc(NC(=O)C4CCCCC4)cc3)n2)cc1
i | -0.14 | CCOc1cc(/C=N/NC(=O)Cn2nc([N+](=O)[O-])cc2C)cc(Br)c1OCc1ccccc1C
-6.2* | -0.47* | O=S(=O)(Nc1c(S(=O)(=O)c2ccccc2)c2nc3ccccc3nc2n1C1CCCCC1)c1ccccc1
i | -0.55 | CCCCN(C(=O)C1CC(=O)N(c2ccc(OC)cc2OC)C1)c1c(N)n(CC(C)C)c(=O)[nH]c1=O (stereo not drawn)

# Going on with the list.
KCNQ2 block | KCNQ2 block baseline | canonical_smiles
i | -0.07 | Cc1ccc(NC(=O)c2c([N+](=O)[O-])cnn2C)cc1C
i | -0.99 | COC(=O)c1ccc(CNCC(O)COc2ccc(-c3ccccc3)cc2)cc1 (stereo not drawn)
i | 0.74 | Cn1c(CNC(=O)c2ccc(F)cc2)nc2ccccc21
i | 0.08 | NC(=O)c1ccc(NC(=O)Nc2ccc3c(c2)OCO3)cc1
i | 2 | CCN(Cc1ccccc1)C(=O)Cn1c(=O)oc2ccccc21
i | 1.2 | CCC(c1nnnn1Cc1ccc2c(c1)OCO2)N1CCN(c2ccc(OC)cc2)CC1 (stereo not drawn)
i | 0.93 | Cc1ccc(N(CC(=O)N/N=C/c2cccnc2)S(=O)(=O)c2ccccc2)cc1
i | 1.1 | CC(C)NC(=O)CN(C)S(=O)(=O)c1ccc(F)cc1
i | 0.5 | O=C(COC(=O)C1CC1)Nc1ccc2[nH]c(=O)[nH]c2c1
-5.9* | -0.01* | O=C(Nc1ccccc1C(=O)Nc1ccccc1C(=O)O)c1ccccc1
i | 0.8 | CCN1C(=O)c2cccc3c(S(=O)(=O)NCc4ccco4)ccc1c23
i | 0.1 | CC(C)c1ccc(-c2nnn(Cc3nc4ccccc4s3)n2)cc1
i | 1.2 | Cc1ccc(OCC(=O)N2CCN(S(=O)(=O)c3ccc(Cl)cc3)CC2)c([N+](=O)[O-])n1
i | -2.4 | Cc1cc(C)cc(NC(=O)C(c2ccccc2)N2CCCC2)c1 (stereo not drawn)
i | 0.78 | CN(C)c1ccc(/C=N/n2c(-c3ccccc3Br)n[nH]c2=S)cc1
i | 0.13 | COc1ccc(NC(=O)c2ccc([N+](=O)[O-])o2)cc1
i | 1.5 | O=S(=O)(c1ccccc1)N1CCN(c2ccnc3cc(Cl)ccc23)CC1
i | -0.77 | O=c1[nH]c(-c2ccc(F)cc2)nc2c1sc(=S)n2-c1ccccc1
i | -1 | Cc1ccc(C)c(-n2cc(CNC(C)Cn3cncn3)c(-c3ccccc3)n2)c1 (stereo not drawn)
i | 1.7 | CN1CCN(C(=O)c2cc(COc3ccc(F)cc3Cl)on2)CC1c1ccccc1 (stereo not drawn)
i | -0.22 | O=C(CSc1nc2ccccc2c(=O)n1CCCN1CCOCC1)Nc1cccc(S(=O)(=O)N2CCCCCC2)c1
i | -1.4 | O=C(NCc1ccccn1)c1cc(-c2ccccc2)on1
i | -0.9 | CCc1nc(SC)[nH]c(=O)c1C
i | -0.31 | Cc1onc(-c2ccccc2Cl)c1C(=O)OCC(=O)c1ccc[nH]1
i | -0.61 | COc1ccc(N2C(=O)CC(Sc3n[nH]c(-c4ccccc4)n3)C2=O)cc1 (stereo not drawn)
i | 0.71 | C/C(CCC1CC(C)OC1=O)=N\NC(N)=S (stereo not drawn)
i | -0.33 | COc1ccc(-c2nc(CCNC(=O)c3cccs3)cs2)cc1
i | -0.08 | COc1ccccc1C1(O)CCN(C(=O)c2cccs2)CC1
-7.2* | 0.17* | Cc1ccc(Cl)cc1N1CCN(S(=O)(=O)c2c(C)[nH]c(C)c2C(=O)N2CCCCC2)CC1
i | -1.5 | O=C(Nc1ccc2c(c1)OCO2)c1ccc(Cl)c(S(=O)(=O)N2CCOCC2)c1

# Arranged by value in KCNQ2 block (highest first): four of the compounds above.
KCNQ2 block | KCNQ2 block baseline | canonical_smiles
-5.9* | -0.01* | O=C(Nc1ccccc1C(=O)Nc1ccccc1C(=O)O)c1ccccc1
-6.2* | -0.47* | O=S(=O)(Nc1c(S(=O)(=O)c2ccccc2)c2nc3ccccc3nc2n1C1CCCCC1)c1ccccc1
-6.8* | -1* | CCCCNC(=O)CNC(=S)N(Cc1ccccc1F)C1CCCCC1
-7.2* | 0.74* | COc1cc(CNCCc2c[nH]c3ccccc23)ccc1OCc1ccc(F)cc1

# Individual results from the list.
# `O=S(=O)(c1ccccc1)N1CCN(c2ccnc3cc(Cl)ccc23)CC1` in KCNQ2 block baseline = 1.5
# `Cc1ccc(OCC(=O)N2CCN(S(=O)(=O)c3ccc(Cl)cc3)CC2)c([N+](=O)[O-])n1` in KCNQ2 block baseline = 1.2
# `O=C(NCc1ccccn1)c1cc(-c2ccccc2)on1` in KCNQ2 block baseline = -1.4
# `NC(=O)c1ccc(NC(=O)Nc2ccc3c(c2)OCO3)cc1` in KCNQ2 block baseline = 0.08
# `Cc1onc(-c2ccccc2Cl)c1C(=O)OCC(=O)c1ccc[nH]1` in KCNQ2 block baseline = -0.31
# `COc1ccccc1C1(O)CCN(C(=O)c2cccs2)CC1` in KCNQ2 block baseline = -0.08

# The main list resumes; the 4 compounds before the break are reprinted first.
KCNQ2 block | KCNQ2 block baseline | canonical_smiles
i | -0.33 | COc1ccc(-c2nc(CCNC(=O)c3cccs3)cs2)cc1
i | -0.08 | COc1ccccc1C1(O)CCN(C(=O)c2cccs2)CC1
-7.2* | 0.17* | Cc1ccc(Cl)cc1N1CCN(S(=O)(=O)c2c(C)[nH]c(C)c2C(=O)N2CCCCC2)CC1
i | -1.5 | O=C(Nc1ccc2c(c1)OCO2)c1ccc(Cl)c(S(=O)(=O)N2CCOCC2)c1
i | -0.04 | Cc1cc(C)cc(NC(=O)C(=O)NCCCN2CCOCC2)c1
i | -1.4 | CSCc1nnc(NC(=O)c2ccc(S(=O)(=O)N(CC(C)C)CC(C)C)cc2)o1
i | -0.35 | O=C(Nc1cc(Cl)cc(Cl)c1)N1CCN(C(=O)C2CCCO2)CC1 (stereo not drawn)
i | -1.4 | COc1ccccc1N1CCN(C(=O)CSc2nc(C)cc(=O)[nH]2)CC1
i | -0.13 | CSCCC(NS(=O)(=O)c1ccc2c(c1)c(=O)n(C)c(=O)n2C)C(=O)NC1CCN(Cc2ccccc2)CC1 (stereo not drawn)
i | -0.63 | Cc1ccc(S(=O)(=O)Nc2ccccc2N(C)S(=O)(=O)c2ccc(C)cc2)cc1
i | -0.87 | CCN(CC)c1ccc(/C=N/n2c(=S)[nH]nc(C)c2=O)cc1
i | 1.3 | CSCCC(NC(=O)c1ccccc1)c1nc(-c2ccccc2)no1 (stereo not drawn)
i | 2.5 | CC(=O)NC(C)C(=O)OCc1ccc(Cl)cc1Cl (stereo not drawn)
i | 2.3 | O=C1CCCc2c1nn(-c1ccccc1)[n+]2[O-]
i | -1.9 | CCCS(=O)(=O)c1c(S(=O)(=O)CCC)c2c(N)cccn2c1C(=O)c1ccccc1
i | 0.39 | CCOC(=O)c1c(S(=O)(=O)NCC(=O)Nc2cccc(C)c2)c(C)n(C)c1C
i | -0.88 | O=C(O)c1cccc(NC(=O)c2cn(-c3ccccc3)nc2-c2ccc([N+](=O)[O-])cc2)c1
i | 1.6 | O=[N+]([O-])c1cc(C(F)(F)F)ccc1NCCc1ccncc1
i | -1.1 | COc1ccc(N(CC(=O)Nc2ccccc2C(=O)N2CCOCC2)S(=O)(=O)c2ccc(F)cc2)cc1
i | 0.94 | O=C(N/N=C/c1ccco1)C1CC1(c1ccccc1)c1ccccc1 (stereo not drawn)
i | 0.77 | O=C(O)C1Nc2c(O)cc(Cl)c([N+](=O)[O-])c2C2C=CCC12 (stereo not drawn)
i | -1.5 | CC(CN1CCCCC1)NC(=O)c1cc(-c2ccccn2)nc2ccc(Cl)cc12 (stereo not drawn)
i | -1.7 | CC(C)(C)NNC(=S)Nc1ccc(S(=O)(=O)N2CCOCC2)cc1
i | -2.1 | CC(C)(C)c1ccc(C(=O)NC(=S)NCc2ccco2)cc1
i | 2.1 | CCOc1ccc(N2CC(NS(=O)(=O)c3cccnc3)CC2=O)cc1 (stereo not drawn)
